# Source: PubChem BioAssay (Broad Institute)
# MLL AF4-AF9 inh = blocks AF4 peptide binding to human AF9. inhibition, % at 10 µM. P42568. AlphaScreen, biotin-AF4 peptide binding to FLAG-AF9. 350,000 tested, 0.47% active;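 active = every replicate reaching a set inhibition limit, whatever the replicate mean, cut at about 25% in these data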;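 note: 0% = plate neutral control median and 100% = total signal loss; the record names both 10 and 1 µM as test concentration; the first replicate is given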
# Target sequence (P42568 whole entry, looked up): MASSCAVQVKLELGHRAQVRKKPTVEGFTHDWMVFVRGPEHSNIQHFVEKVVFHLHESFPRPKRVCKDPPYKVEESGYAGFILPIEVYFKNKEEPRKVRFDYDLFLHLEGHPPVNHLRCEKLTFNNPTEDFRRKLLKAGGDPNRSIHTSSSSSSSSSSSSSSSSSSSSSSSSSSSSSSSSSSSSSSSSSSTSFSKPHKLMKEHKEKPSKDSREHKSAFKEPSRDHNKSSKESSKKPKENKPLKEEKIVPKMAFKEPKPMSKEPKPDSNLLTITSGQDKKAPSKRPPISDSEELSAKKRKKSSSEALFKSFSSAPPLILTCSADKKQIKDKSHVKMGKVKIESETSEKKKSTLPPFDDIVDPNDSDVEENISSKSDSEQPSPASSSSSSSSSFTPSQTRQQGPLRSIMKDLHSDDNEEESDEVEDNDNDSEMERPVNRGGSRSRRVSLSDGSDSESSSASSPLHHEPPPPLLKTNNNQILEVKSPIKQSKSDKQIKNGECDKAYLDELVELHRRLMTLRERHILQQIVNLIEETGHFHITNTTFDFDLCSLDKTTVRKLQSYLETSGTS
# Ecoli rRNA inh = inhibits bacterial ribosomal RNA function over humanized ribosomes. E. coli WT GFP vs humanized-ribosome RFP mutants, fluorescence, 24 h; active compounds read low; DMSO median 0, no signal -100. GFP signal change (wild-type ribosome), % (no concentration beside the values). 350,000 tested, 1.6% active;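 active = significant combined selectivity score with lowered wild-type GFP, culture density cut under 30%, mutant RFP and density less affected; inactive = any of these conditions unmet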; note: one replicate is shown; some compounds called inactive have numbers as strong as hits
# FGF22 binding = shifts melting point of recombinant human FGF22; Q9HCT0; recombinant FGF22 thermal shift, SYPRO orange fluorescence; percent of sucrose octasulfate shift, DMSO zero; calls only at 9.99 µM; 340,000 tested, 1.5% active;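 active = melting point raised past a set limit in the mean and every replicate; three in four hits are not shown here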
# Target sequence (Q9HCT0 whole entry, looked up): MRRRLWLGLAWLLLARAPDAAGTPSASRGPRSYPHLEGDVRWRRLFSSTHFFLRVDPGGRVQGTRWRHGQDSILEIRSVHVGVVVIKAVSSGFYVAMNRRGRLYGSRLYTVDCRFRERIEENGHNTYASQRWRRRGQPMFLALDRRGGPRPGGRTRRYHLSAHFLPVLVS
# Ecoli rRNA inh OD600 = also measured in Ecoli rRNA inh; calls as there; OD600 change, %; measured here: OD600 growth;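 optical density of the mix in the first replicate; 0 = DMSO median and -100 = no signal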
# Ecoli rRNA inh RFP = recorded beside Ecoli rRNA inh, whose call it bears; RFP signal change, %; measured here: RFP humanized mutant strains;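 first replicate; 0 = DMSO median and -100 = no signal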
# An asterisk follows results filed as active; i = inactive; / = no result given; & = joins results of further samples.
item	structure	Ecoli rRNA inh RFP	Ecoli rRNA inh	MLL AF4-AF9 inh	FGF22 binding	Ecoli rRNA inh OD600
1	Cc1ccc(-c2ccc3c(c2)O[C@H](CN(C)Cc2ccc(C(=O)O)cc2)[C@H](C)CN([C@@H](C)CO)S3(=O)=O)cc1	-1.9	-9	1.5	i	-12
2	COc1ccc(NC(=O)N(C)C[C@@H]2OCc3cnnn3CCCC(=O)N([C@H](C)CO)C[C@@H]2C)c(OC)c1	-0.9&0.5	12&2	-2.1&-2.1	i	15&3
3	COc1ccc(CN(C)C[C@@H]2Oc3ccc(NC(=O)Nc4ccc(F)cc4)cc3C(=O)N([C@@H](C)CO)C[C@H]2C)cc1	-0.3	1	7.0	i	-7
4	O=C(Nc1ccc(F)cc1)Nc1ccc2c(c1)[C@H]1C[C@H](CC(=O)N3CCOCC3)O[C@@H](CO)[C@H]1O2	-0.2	5	-7.3	i	-8
5	CC1(C(=O)NS(=O)(=O)c2cccc(Cl)c2)CCN1C(=O)c1ccccc1CCc1ccccc1 (centres undefined)	8.6	-38	-1.6	i	-44
6	C[C@H](CO)N1C[C@H](C)[C@H](CN(C)C)Oc2ncc(-c3ccccc3)cc2C1=O	-1.1	-2	-1.8&-2.6	i	8
7	CC(C)NC(=O)N(C)C[C@H]1Oc2ncc(-c3ccccc3F)cc2C(=O)N([C@@H](C)CO)C[C@H]1C	0.2	3	-3.8	i	2
8	O=S(=O)(/N=C(\c1ccc(F)cc1)N1CCOCC1)c1ccccc1	-1.4	11	-0.6	i	-3
9	O=C(Nc1ccc(F)cc1)N[C@H]1CC[C@@H](CCn2cc(C3(O)CCCC3)nn2)O[C@H]1CO	0.7	0	1.0	i	7
10	O=C(COC(=O)CCc1c[nH]c2ccccc12)Nc1cccc(Cl)c1	3.2	-3	-2.9	i	-4
11	COc1cc(OC)nc(Nc2nc(C(N)Cc3ccc(F)cc3)cs2)n1 (centres undefined)	-6.3	-38	17	i	-62
12	COc1ccc2c3c(n(C)c2c1)[C@H](CO)N(CC1CC1)CC31CN(C(=O)CC2CC2)C1	-1.9	0	4.5	i	9
13	O=C(C[C@@H]1CC[C@H](NC(=O)CC2CC2)[C@@H](CO)O1)NCC(F)(F)F	-1.1	3	3.8	i	4
14	Cc1ccc(CN(C)C[C@H]2OCc3cn(nn3)CCCC(=O)N([C@@H](C)CO)C[C@H]2C)cc1	-2.8	2	-0.2	i	9
15	O=C(Nc1ccccc1F)N1CCCCN2[C@H](CO)[C@H](c3ccc(C4=CCCC4)cc3)[C@@H]2C1	12	-22	-3.5	i	-26
16	O=C(Cc1ccncc1)NCC[C@@H]1CC[C@@H](NC(=O)Nc2ccc(F)cc2)[C@@H](CO)O1	-0.8	0	-0.3	i	7
17	CC(C)NC(=O)N(C)C[C@@H]1Oc2ccc(NC(=O)Cc3cn(C)c4ccccc34)cc2C(=O)N([C@@H](C)CO)C[C@@H]1C	0.0	5	-9.0	i	1
18	O=C1OCCC1=COCCCCCCOC=C1CCOC1=O	5.6	3	-7.0	i	-7
19	C[C@@H]1CN([C@@H](C)CO)C(=O)c2cc(NC(=O)Cn3cnnn3)ccc2O[C@H]1CN(C)Cc1ccc(C(=O)Nc2ccccc2N)cc1	-0.3	4	1.7	i	9
20	COc1cc(CN2C[C@@H](CO)O[C@@H](n3cnc4c(N(C)C(C)C)ncnc43)C2)cc(OC)c1OC	2.9	11	-3.9	i	5
21	C[C@H]1CN([C@@H](C)CO)C(=O)c2cccc(NS(=O)(=O)c3ccc(Cl)cc3)c2O[C@H]1CN(C)CC1CC1	-2.2	1	-14	i	5
22	CO[C@@H]1CN(C)C(=O)c2cc(NC(=O)C3CCC3)ccc2OC[C@@H](C)N(Cc2ccncc2)C[C@@H]1C	-0.8	-3	-3.0	i	-4
23	CN(C)C(=O)C[C@H]1CC[C@H]2[C@H](COc3ccc(NS(=O)(=O)c4cccc(F)c4)cc3C(=O)N2C)O1	-2.3	3	-1.0	i	4
24	COc1ccc(S(=O)(=O)N[C@H]2C=C[C@H](CC(=O)NCCc3ccccc3)O[C@H]2CO)cc1	-3.9	-1	-6.6	i	1
25	Cc1c(C(=O)Nc2cccc(Oc3ccccc3)c2)sc(=O)n1Cc1ccc(F)cc1	-2.6	8	4.5	i	8
26	CCN(CC)C(=O)C1=C(C)N(CCCN2CCCC2=O)C(=O)C(CC(=O)NCCN2CCOCC2)C1 (centres undefined)	-4.3	7	-0.5	i	3
27	CN(C)CCCNC(=O)C[C@@H]1CC[C@H]2[C@@H](COC[C@H](O)CN2S(=O)(=O)c2ccc(F)cc2)O1	2.0	1	-2.4	i	7
28	CO[C@H]1CN(C)C(=O)c2cc(NS(=O)(=O)c3ccccc3)ccc2OC[C@@H](C)N(Cc2cccnc2)C[C@@H]1C	6.7	2	0.1	i	-22
29	Cc1noc(C)c1NC(=O)N(C)C[C@@H]1Oc2c(NS(=O)(=O)c3ccc(F)cc3)cccc2C(=O)N([C@H](C)CO)C[C@H]1C	-1.0	7	0.0	i	13
30	CO[C@@H]1CN(C)C(=O)c2cc(NS(=O)(=O)CC(F)(F)F)ccc2OC[C@@H](C)N(CCC(F)(F)F)C[C@H]1C	1.0	-5	-0.4	i	1

# Next part
item	structure	Ecoli rRNA inh RFP	Ecoli rRNA inh	MLL AF4-AF9 inh	FGF22 binding	Ecoli rRNA inh OD600
31	O=C(C[C@@H]1CC[C@H]2[C@@H](COC[C@@H](O)CN2C(=O)c2ccccn2)O1)N1CCN(c2ccccc2)CC1	-1.2	0	0.3	i	5
32	C[C@@H]1CN([C@H](C)CO)C(=O)c2ccccc2-c2ccccc2CO[C@@H]1CN(C)C(=O)Nc1ccccc1C(F)(F)F	-0.1	0	-4.4	i	0
33	C[C@H]1CN([C@@H](C)CO)C(=O)c2cc(NC(=O)Nc3ccc(F)cc3)ccc2O[C@H]1CN(C)C	-0.9	5	-1.3	i	4
34	COCC(=O)N1[C@@H](C#N)[C@@H](c2ccccc2-c2ccc(C)cc2)[C@@H]1CO	-3.2	-2	-9.7	i	6
35	O=C(Cc1ccccc1)N[C@@H]1C=C[C@@H](CC(=O)N2CCOCC2)O[C@@H]1CO	-2.3	0	3.2	i	3
36	CC(C)(C)C(c1nc2ccccc2[nH]1)n1c(-c2cccc(S(C)(=O)=O)c2)nc2ccccc21 (centres undefined)	3.4	12	1.4	i	9
37	C[C@@H]1CN([C@@H](C)CO)C(=O)Cc2cc(NC(=O)NC3CCCCC3)ccc2O[C@H]1CN(C)Cc1ccc(-c2ccccc2)cc1	3.0	1	1.8	i	0
38	CCCNC(=O)N1[C@H](CO)[C@@H](c2ccc(-c3cccnc3)cc2)[C@@H]1C#N	-4.7	5	-1.3	i	7
39	O=C(C[C@H]1CC[C@@H]2[C@H](COC[C@@H](O)CN2Cc2cc(F)cc(F)c2)O1)NC1CCCC1	-1.4	-1	0.1	i	-5
40	O=C(c1ccccn1)N1C[C@@H]2[C@H](c3ccccc31)[C@@H](CO)N2C(=O)C1CC1	0.2	4	-1.8	i	3
41	O=C(N[C@@H]1CC[C@@H](CCn2cc(C3CC3)nn2)O[C@H]1CO)c1cccnc1	-2.2	-1	-0.4	i	-2
42	Cc1noc(C)c1S(=O)(=O)Nc1ccc2c(c1)CC(=O)N([C@H](C)CO)C[C@H](C)[C@H](CN(C)S(=O)(=O)c1cccs1)O2	3.1	1	1.2	i	6
43	COC(=O)[C@]12CCCCC=C1N(Cc1ccc(Cl)cc1Cl)C(=O)[C@H](CC(=O)NCc1cccs1)C2	-2.7	-2	-1.1	i	-1
44	CO[C@@H]1CN(C)C(=O)c2cc(NC(=O)c3cc(C)on3)ccc2OC[C@@H](C)N(C(C)=O)C[C@H]1C	-2.7	2	-0.9	i	-1
45	C[C@H](CO)N1C[C@H](C)[C@H](CN(C)C(=O)C2CC2)Oc2ncc(-c3cccnc3)cc2C1=O	-2.8	2	-2.8	i	8
46	COCC(=O)N1CC(=O)N2[C@H](CO)[C@@H](c3ccc(Br)cc3)[C@@H]2C1	0.1	4	-1.7	i	-1
47	C[C@@H](NC(=O)C[C@@H]1CC[C@H](NS(=O)(=O)c2cccc(F)c2)[C@H](CO)O1)c1ccccc1	-4.3	-1	-0.8	i	-1
48	C[C@@H]1CCCCO[C@@H](CN(C)Cc2ccc(Cl)c(Cl)c2)[C@@H](C)CN([C@H](C)CO)C(=O)c2cc(NC(=O)Nc3cccc4ccccc34)ccc2O1	-2.5	3	-15	i	18
49	Cc1noc(C)c1S(=O)(=O)Nc1ccc2c(c1)C(=O)N([C@@H](C)CO)C[C@@H](C)[C@H](CN(C)Cc1ccc(Oc3ccccc3)cc1)O2	2.7	2	4.5	i	-22
50	CC(=O)Nc1cccc(Nc2cnccn2)c1	-2.0	2	2.5	i	2
51	COc1ccc(C#Cc2ccc3c(c2)O[C@@H](CN(C)C)[C@H](C)CN([C@H](C)CO)S3(=O)=O)cc1	31	5	15	i	-28
52	COc1ccc2c3c(n(C)c2c1)[C@@H](CO)N(C(=O)Nc1cccc(F)c1)CC31CN(C)C1	2.2	7	16	i	0
53	CCN1C(=O)N[C@H]2C[C@@H](c3ccccc3)[C@@H](C)[C@@H](C(=O)N3CCCC3)C[C@H]21	1.1	6	-3.1	/	4
54	COc1cccc(S(=O)(=O)Nc2ccc3c(c2)C(=O)N(C)C[C@@H](OC)[C@H](C)CN[C@H](C)CO3)c1	0.4	1	-1.3	i	0
55	C[C@@H]1CN([C@@H](C)CO)S(=O)(=O)c2ccc(C#CC(C)(C)O)cc2O[C@@H]1CN(C)Cc1ccc(-c2ccccc2)cc1	4.7	-1	3.8	i	-5
56	CC(C)NC(=O)Nc1ccc2c(c1)C(=O)N([C@@H](C)CO)C[C@@H](C)[C@@H](CN(C)Cc1ccc(Cl)c(Cl)c1)OCCCC[C@@H](C)O2	8.0	3	9.6	i	-13
57	COc1cccc(CNC(=O)C[C@H]2CC[C@H]3[C@H](COc4ccc(NC(=O)c5cccs5)cc4C(=O)N3C)O2)c1	0.1	-4	-0.6	i	-10
58	C[C@H]1CN([C@@H](C)CO)S(=O)(=O)c2ccc(C#Cc3ccccc3)cc2O[C@H]1CN(C)S(=O)(=O)c1ccccc1F	0.6	3	-0.6	i	11
59	C[C@H]1CN([C@@H](C)CO)S(=O)(=O)c2ccc(-c3cncnc3)cc2O[C@H]1CN(C)C(=O)CN(C)C	-4.1	5	-4.2	i	10
60	Cn1ccc2c(-c3cncc4ccccc34)cc3c(c21)C1CCC3C1 (centres undefined)	6.1	-1	3.9	i	-19

# One compound at a time, as listed above. Order of screens: Ecoli rRNA inh RFP	Ecoli rRNA inh	MLL AF4-AF9 inh	FGF22 binding	Ecoli rRNA inh OD600
# Results for C[C@@H]1CN([C@@H](C)CO)S(=O)(=O)c2ccc(C#CC(C)(C)O)cc2O[C@@H]1CN(C)Cc1ccc(-c2ccccc2)cc1 → 4.7	-1	3.8	i	-5
# Results for C[C@@H]1CCCCO[C@@H](CN(C)Cc2ccc(Cl)c(Cl)c2)[C@@H](C)CN([C@H](C)CO)C(=O)c2cc(NC(=O)Nc3cccc4ccccc34)ccc2O1 → -2.5	3	-15	i	18
# Results for O=C(Cc1ccccc1)N[C@@H]1C=C[C@@H](CC(=O)N2CCOCC2)O[C@@H]1CO → -2.3	0	3.2	i	3
# Results for C[C@H]1CN([C@@H](C)CO)S(=O)(=O)c2ccc(-c3cncnc3)cc2O[C@H]1CN(C)C(=O)CN(C)C → -4.1	5	-4.2	i	10
# Results for C[C@H]1CN([C@@H](C)CO)S(=O)(=O)c2ccc(C#Cc3ccccc3)cc2O[C@H]1CN(C)S(=O)(=O)c1ccccc1F → 0.6	3	-0.6	i	11

# (further entries)
item	structure	Ecoli rRNA inh RFP	Ecoli rRNA inh	MLL AF4-AF9 inh	FGF22 binding	Ecoli rRNA inh OD600
61	O=C(C[C@H]1CC[C@@H]2NC[C@@H](O)COC[C@H]2O1)NCCc1ccccc1	0.0	2	-1.2	i	-4
62	COc1ccccc1S(=O)(=O)N[C@H]1CC[C@H](CCNC(=O)C2CCOCC2)O[C@H]1CO	-0.3	1	0.5	i	7
63	O=C(N[C@H]1CC[C@H](CCNS(=O)(=O)c2ccccc2Cl)O[C@@H]1CO)c1ccccc1	-1.5	1	-0.5	i	-2
64	Cc1noc(C)c1NC(=O)N(C)C[C@H]1Oc2c(NC(=O)Nc3cccc4ccccc34)cccc2C(=O)N([C@H](C)CO)C[C@@H]1C	-0.6	2	1.4	i	12
65	C[C@@H]1CN([C@@H](C)CO)C(=O)c2cc(C#CC3CC3)cnc2O[C@H]1CN(C)Cc1ccccc1C(=O)O	-2.8	-3	1.2	i	5
66	C[C@@H]1CN([C@@H](C)CO)C(=O)Cc2cc(N(C)C)ccc2O[C@@H]1CN(C)Cc1ccc(C(=O)Nc2ccccc2N)cc1	-0.2	-3	-0.1	i	-10
67	C[C@@H]1CCCCO[C@@H](CN(C)S(=O)(=O)c2cccs2)[C@@H](C)CN([C@@H](C)CO)C(=O)c2cc(NC(=O)c3ccncc3)ccc2O1	-0.2	0	-0.3	i	4
68	CC(=O)N[C@@H]1CC[C@H](CCNC(=O)C2CCCC2)O[C@H]1CO	-3.1	1	1.2	i	3

# Only part of the results is shown (hit frequency here may not be typical).
